# Mtb MbtI inh – MbtI salicylate synthase inhibitors, primary screen, biochemical, fluorescence intensity; inhibition, %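 (about 17 µg/mL by stock and volumes)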; 100,000 tested, 0.89% active; purified MbtI enzyme, fluorescence intensity read-out;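 active = above 50% in both replicates, above 80% if mildly self-fluorescent; inactive = the rest, strongly fluorescent compounds included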;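 also: 0% = mean of negative and 100% = mean of positive controls; one replicate is shown; some compounds called inactive have numbers as strong as hits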
# Target sequence (P9WFX0 whole entry, looked up): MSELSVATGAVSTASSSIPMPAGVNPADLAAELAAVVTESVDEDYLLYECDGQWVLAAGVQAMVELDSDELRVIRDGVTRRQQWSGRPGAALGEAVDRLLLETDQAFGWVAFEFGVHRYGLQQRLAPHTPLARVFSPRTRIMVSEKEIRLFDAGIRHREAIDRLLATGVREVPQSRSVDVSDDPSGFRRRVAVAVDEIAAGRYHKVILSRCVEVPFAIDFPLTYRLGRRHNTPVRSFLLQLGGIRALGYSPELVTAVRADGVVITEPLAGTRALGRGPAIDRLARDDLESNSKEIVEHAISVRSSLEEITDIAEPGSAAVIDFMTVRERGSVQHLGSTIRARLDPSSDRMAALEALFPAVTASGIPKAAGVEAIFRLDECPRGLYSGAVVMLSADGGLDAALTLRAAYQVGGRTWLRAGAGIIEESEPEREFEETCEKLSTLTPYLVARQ
# Polio RdRp inh – poliovirus RdRp elongation inhibitors, primary screen, biochemical, fluorescence polarization, total intensity | Genome polyprotein (Poliovirus type 1 (strain Mahoney)), P03300 | poliovirus polymerase elongation; active compounds read low | 150,000 tested, 0.66% active | % elongation, % (compound at 16.7 µg/mL); in the data active = % elongation below about 90%; also: some results filed as inactive read as strong as hits
# MenB inh – M. tuberculosis MenB inhibitors, primary screen, biochemical, absorbance; 1,4-dihydroxy-2-naphthoyl-CoA synthase (Mycobacterium tuberculosis (strain ATCC 25618 / …; MenB enzyme assay, absorbance read-out; some hits fall short of the stated cut; inhibition, %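 (about 12 µg/mL by stock and volumes)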; 100,000 tested, 0.43% active; AID 540299, 2011;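 active = mean of two replicates above 30%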;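 also: 0% = no compound and 100% = wells with inactive enzyme; the first replicate is given; strong numbers were not always called active; inactives centre near -10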
# Target sequence (P9WNP5 whole entry, looked up): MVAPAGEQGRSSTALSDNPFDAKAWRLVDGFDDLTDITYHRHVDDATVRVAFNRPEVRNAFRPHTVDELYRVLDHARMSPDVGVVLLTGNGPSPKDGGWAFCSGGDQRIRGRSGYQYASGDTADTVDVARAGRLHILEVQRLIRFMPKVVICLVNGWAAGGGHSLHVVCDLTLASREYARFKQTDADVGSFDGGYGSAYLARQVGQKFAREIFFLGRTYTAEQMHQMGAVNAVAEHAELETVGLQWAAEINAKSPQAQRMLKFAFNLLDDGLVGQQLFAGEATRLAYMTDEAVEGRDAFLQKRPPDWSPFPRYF
# Polio RdRp inh intensity – second read-out of Polio RdRp inh, no call of its own (marks repeat the call); % elongation; measured here: total intensity read-out; formula for this scale not given here;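 total fluorescence in place of polarization; lower means less elongation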
# An asterisk follows results filed as active; i = inactive; . = no result given; & = joins results of further samples.
SMILES,Mtb MbtI inh,Polio RdRp inh,Polio RdRp inh intensity,MenB inh
COc1ccccc1NC(=O)N1C(C(=O)NCc2ccc(F)cc2)CSC1c1ccccc1C (configuration not stated),-7,106,108,-13
O=C(Nc1ccccc1)OC1C2CCCC1C(N1CCCCC1)CC2 (configuration not stated),.,106,110,-14
CCC(C(=O)NCc1ccco1)n1c(SCc2ccc(F)cc2)nc2cccnc21 (configuration not stated),-114,101,95,-88
CC(Nc1ccc(-n2cnnn2)cc1)C(=O)N1CCN(Cc2ccccc2)CC1 (configuration not stated),-8,106,106,-7
CN(C)C(=O)COC(=O)C1c2ccccc2Oc2ccccc21,9,104,97,-2
O=C(Nc1nccs1)C1CC2CCCC(C1)C2=O (configuration not stated),12,101,96,.
COc1cc(NC(=O)COCc2cc(-c3ccc(F)cc3)on2)c(OC)cc1Cl,-3,99,101,3
O=C(NC1(O)C(=O)c2ccccc2C1=O)c1ccc(C(F)(F)F)cc1,-2,9.0*,28*,1
CC1CCCC(C)N1C(=S)NCCCN1CCOCC1 (configuration not stated),-5,110,104,-12
c1ccc(CN2CCN(CCN3CCCCC3)CC2)cc1,2,97,113,-3
CC1CCCCN1C(=O)c1cc2ccccc2oc1=O (configuration not stated),8,101,106,-3
Cc1ccc(N(C)S(=O)(=O)c2cc3[nH]c(=O)c(=O)[nH]c3cc2C)cc1,-22,100,102,-40
O=C1CC(c2ccc(Cl)cc2)n2ncnc2N1 (configuration not stated),-5,103,107,-14
O=C(COC(=O)c1cc2ccccc2cc1O)c1ccc(OCc2ccccc2)cc1,10,102,104,-31
Cc1c(/C=C2/N=C(c3ccccc3)OC2=O)cc(C#N)n1C,1,98,101,3
O=S(=O)(Nc1ccc(O)cc1)c1ccc2oc3ccc(S(=O)(=O)Nc4ccc(O)cc4)cc3c2c1,11,102,103,0
O=C(Nc1cccc(C(F)(F)F)c1)c1ccccn1,-11,103,99,.
Cn1c(=O)c2c(nc(NN=C3CCCCC3)n2C)n(C)c1=O,18,99,102,-1
S=c1nc(-c2cccs2)[nH]n1CN1CCCC1,90,100,96,17
CC(C)(C)N1CC(c2nc3ccccc3[nH]2)CC1=O (configuration not stated),-35,102,100,-52
Cc1ccc(NC(=O)CC2Oc3ccccc3NC2=O)cc1 (configuration not stated),-7,100,104,-1
CCCn1c(SCC(=O)N2CCC(C)Sc3ccccc32)n[nH]c1=O (configuration not stated),-9,105,111,-10
CCC(=O)NCCSc1ncc(-c2ccccc2)[nH]1,-35,100,102,9
CCN(Cc1nc2cc(OC)c(OC)cc2c(=O)[nH]1)C(=O)c1ccc(S(=O)(=O)N(C)C)cc1,-1,106,106,-24
COC(=O)c1ccc(COc2ccc(F)cc2)cc1,-15,101,103,-3
O=C(OCc1cc(=O)n2cc(Br)ccc2n1)C1COc2ccccc2O1 (configuration not stated),-5,104,106,-6
CCCCN1C(=O)c2ccccc2C1C(=O)NC1CCCC1 (configuration not stated),-2,100,101,-11
Cc1cc(=O)c2cc(N)ccc2[nH]1,117,102,99,-8
CN(C)S(=O)(=O)c1cccc(COC(=O)/C(=C/c2cccs2)c2cccs2)c1,-2,102,105,-3
CC(C)NCC(O)COc1ccc(S(=O)(=O)N2CCOCC2)cc1 (configuration not stated),4,107,111,-13
Cc1cc(C)c(C(N)=O)c(=O)[nH]1,33,101,100,-12
O=C(OCCOc1cccc(Cl)c1)C1CCN(S(=O)(=O)c2cccs2)CC1,-1,104,101,-3
NC(=O)c1cccc(N=Cc2ccc3ccccc3c2)c1,.,105,106,-4
Cc1ccc(S(=O)(=O)N2CCC(O)CC2C)cc1 (configuration not stated),4,96,105,6
O=C1OC(c2ccc(Br)cc2)=N/C1=C\N1CCCCC1,18,102,101,-2
CC(CCc1ccccc1)NC(=O)C(C)N1CCNC(=O)C1 (configuration not stated),2,103,109,-14
N#CC(C(=O)c1cccc(C(F)(F)F)c1)=C1SCCCCS1,-7,102,103,-14
Cc1ccc(C2CC(=O)NC(SCc3ccccc3)=C2C#N)o1 (configuration not stated),3,102,102,-16
CC(=O)Nc1ccc(N2Cc3ccccc3C2)cc1,2,107,102,-99
O=C(O)C(Cc1ccc(O)cc1)N=Cc1cccc2ccccc12 (configuration not stated),.,175,171,-28
CCC(=O)Nc1ccc(C(=O)Nc2c[nH]c(=O)[nH]c2=O)cc1,73,101,103,18
O=C(O)c1cc(S(=O)(=O)NCCN2CCOCC2)ccc1O,46,95,97,0
O=C(NCc1cccc(CNC(=O)NCc2ccco2)c1)NCc1ccco1,-9,109,112,-25
N#CCn1ccccc1=O,3,100,100,-15
O=C(NCc1ccc2c(c1)OCO2)C1CC(=O)N(C2CCCCC2)C1 (configuration not stated),-7,102,97,-33
O=c1ccc(-c2ccncc2)n[nH]1,0,104,107,-3
CCOC(=S)SCc1cn2ccccc2n1,17,103,103,.
O=C(N/N=C/c1ccc(N2CCCCC2)o1)c1ccco1,12,98,105,-48
Cc1ccc(-c2csc(NC(=O)Nc3ccccc3)n2)cc1,-4,102,105,4
Cc1ccc(S(=O)(=O)N2CCCC2C(=O)Nc2ccc(C)cc2C)cc1 (configuration not stated),-1,101,96,-20
COC(=O)c1ccc(-c2ccco2)n1CC(=O)NCc1ccc(Cl)cc1,10,103,101,-9
O=c1[nH]c2ccccc2c(=O)n1CCSc1ccccc1,-14,106,113,4
COc1ccc(S(=O)(=O)NCc2ccc(C(=O)NC3CCCCC3C)cc2)cc1 (configuration not stated),14,99,100,8
Cc1ccc(NC(=O)COC(=O)CCc2ccco2)cc1C,-1,104,110,7
Cc1ccccc1-c1nc(CS(=O)(=O)CC(=O)N(C)Cc2ccccc2)c(C)o1,-3,100,104,-14
CC1(C)CC2CC(C)(CN2C(=O)COCc2cc(-c3ccco3)on2)C1 (configuration not stated),1,72,198,-27
CCc1ccc(-c2nc3c(C#N)c[nH]n3c2NC2CCCCC2)cc1,0,100,98,10
C=CCN1C(=O)/C(=C/c2c(N3CCCCC3)nc3ccccn3c2=O)SC1=S,11,120,143,-24
O=c1c(C=Nc2ccccc2)c(O)c2c(n1-c1ccccc1)CCCC2,6,104,103,-26
COC(CNS(=O)(=O)c1cn(C)c(=O)n(C)c1=O)OC,9,99,100,7
# Next part:
SMILES,Mtb MbtI inh,Polio RdRp inh,Polio RdRp inh intensity,MenB inh
Cc1ccc(C(c2sc3ncnn3c2O)N2CCN(CCO)CC2)cc1 (configuration not stated),17,104,108,-26
COC(=O)c1ccc(C2OCC(C)(C)CO2)cc1,.,101,99,-8
Cc1cc(OCc2c(C)c(C)c(C)c(C)c2C)c2cc(Cl)ccc2n1,17,110,112,-31
O=C(CC1(O)C(=O)Nc2ccccc21)CC1(O)C(=O)Nc2ccccc21 (configuration not stated),-5,104,104,-19
CCc1ccc(Nc2ncnc3c2cnn3C)cc1,-91,100,101,9
COc1ccccc1NC(=O)CSCC(N)=O,95*,102,101,-24
COc1ccc(Cl)cc1S(=O)(=O)N(C)CC(N)=O,0,100,102,2
O=S(=O)(NCc1ccco1)c1cccc(S(=O)(=O)N2CCCCC2)c1,-3,102,103,-6
O=S(=O)(c1cccc(C(F)(F)F)c1)N1CCCN(CCc2ccccc2)CC1,2,101,96,11
O=S(=O)(c1ccsc1)c1ccsc1,.,105,106,-5
CCC(Sc1nnc2c3ccccc3n(CC)c2n1)C(=O)NC(C)c1ccccc1 (configuration not stated),-7,101,103,-6
CC1(C)Cc2c(c(N3CCOCC3)nc3sc4c(ncn5c(SCC(=O)NCc6ccco6)nnc45)c23)CO1,-207,101,100,4
CC(NC(=O)CC1=NS(=O)(=O)c2ccccc2N1)c1ccccc1 (configuration not stated),-7,101,101,-28
O=C(Nc1ccccc1)Nc1cccc(Cl)c1,-24,100,102,-40
Cc1ccccc1-c1noc(-c2ccccc2C)n1,11,100,104,15
O=C(COC(=O)c1ccco1)NC(c1ccccc1)c1ccccc1,-11,107,107,-21
CCc1n[nH]c(=O)c2cc3cc(OC)ccc3n12,19,99,101,4
COC(=O)c1cc(OC)c(OC)cc1NCC(=O)Nc1ccc(C)cc1,103,98,95,-38
O=C(CC1CCCCC1)Nc1cccnc1,-7,100,100,-56
CC(C(=O)Nc1ccc2c(c1)OCO2)N(C)CC1COc2ccccc2O1 (configuration not stated),11,105,102,5
COc1cccc(Nc2nc(C3(C)CC4(CC(C)OC4=O)C(=O)O3)cs2)c1 (configuration not stated),12,100,100,-2
N#CCC(=O)Nc1ccc(C(=O)O)cc1,-18,103,105,.
CN(C)c1ccsc1C(=O)NN,-5,102,104,-15
O=C(O)CCC(=O)Nc1nccs1,12,108,100,12
O=c1oc(-c2cccnc2)nc2sc3c(c12)CCCCC3,.,105,109,-2
COc1ccccc1CC(=O)Nc1nncs1,.,97,92,2
CCc1nnc(SCC(=O)N(CC)c2ccccc2)c2cc3occc3n12,3,102,98,24
C=C1CC[C@H](O)C/C1=C/C=C1\CCC[C@]2(C)[C@@H]([C@H](C)CCCC(C)(C)O)CC[C@@H]12,-20,102&102,104&104,-1
Cc1cc(C)n2cc(CSC(C)C(=O)O)nc2n1 (configuration not stated),103,105,109,-17
NNC(=O)CC1=NNC(=O)C1,-6,108,106,-121
O=C(Cc1nnc(-c2ccc(Br)cc2)o1)NCCc1ccccc1,-3,104,105,-14
COc1cccc2c1OC1(CCCCC1)N1N=C(c3ccco3)CC21 (configuration not stated),-2,100,105,7
COc1ccc(CC(=O)N2CCc3ccccc3C2)cc1,2,103,105,-14
COc1ccccc1NC(=S)NC(c1ccccc1)c1ccccc1,-6,102,101,-14
c1cnc2c(OCc3nc4ccccc4[nH]3)cccc2c1,-30,101,104,-56
CC(=O)O[C@]1(C(=O)CO)CCC2C3CCC4=CC(=O)CCC4(C)C3C(O)CC21C (some centres not stated),-3,100,103,-4
O=c1ccc(-c2nc3ccccc3[nH]2)n[nH]1,11,101,100,13
COc1cccc(NC(=O)c2cnccc2C(F)(F)F)c1,-4,105,108,0
O=C(CN1CCCCCCC1)N/N=C/c1cccs1,7,103,104,-54
CN1c2ccccc2-c2nc3ccccc3n2C1c1ccccc1 (configuration not stated),i,101,107,-39
CCOC(=O)N1CCN(Cc2nnc(-c3cccc(Br)c3)o2)CC1,-12,104,104,-12
CCc1nc(SC)c(C#N)c2c1CCCC2,.,103,108,-8
Cc1ccc(NS(=O)(=O)c2cc(-c3cc(C)no3)ccc2C)nc1,i,98,101,0
Cc1cc(C(=O)COC(=O)/C=C/c2ccc(S(=O)(=O)N3CCOCC3)cc2)c(C)n1C,3,98,94,4
O=C(CSc1nnc(Cc2cc(=O)[nH]c(=O)[nH]2)n1-c1ccccc1)NCc1ccco1,2,99,105,-15
Cc1cc(NC(=O)c2ccc(COc3ccc(Cl)c(C)c3)o2)no1,-10,103,107,1
CC1(C)CC(N(Cc2cccs2)C(=O)c2ccco2)CCO1 (configuration not stated),14,103,104,-6
CCOc1ccc2[nH]c(=O)c(C(c3nnnn3CCOC)N3CCc4ccccc43)cc2c1 (configuration not stated),.,103,105,-9

# Two records picked at random from those above, as already listed:
SMILES,Mtb MbtI inh,Polio RdRp inh,Polio RdRp inh intensity,MenB inh
CN1c2ccccc2-c2nc3ccccc3n2C1c1ccccc1 (configuration not stated),i,101,107,-39
CCc1nc(SC)c(C#N)c2c1CCCC2,.,103,108,-8

# The results go on:
SMILES,Mtb MbtI inh,Polio RdRp inh,Polio RdRp inh intensity,MenB inh
S=c1[nH]c2cc(Cl)c3cccnc3c2o1,33,101,101,12
CC(C)N(C(=O)C[n+]1cccc(/C=N/O)c1)C(C)C,4,101,103,-18
CCOC(=O)c1sc2nc(CN3CCC(C)CC3)[nH]c(=O)c2c1C,-245,108,108,-5
Cc1ccc(-c2cn3c(n2)CCC3)cc1,3,101,105,.
O=C(/C=C/c1ccc(S(=O)(=O)N2CCCCCC2)cc1)N1CCN(C(=O)c2ccccc2)CC1,-9,99,106,-16

# Filtered by structure: the compounds so far with an aryl methoxy group.
SMILES,Mtb MbtI inh,Polio RdRp inh,Polio RdRp inh intensity,MenB inh
COc1ccccc1NC(=O)N1C(C(=O)NCc2ccc(F)cc2)CSC1c1ccccc1C (configuration not stated),-7,106,108,-13
COc1cc(NC(=O)COCc2cc(-c3ccc(F)cc3)on2)c(OC)cc1Cl,-3,99,101,3
CCN(Cc1nc2cc(OC)c(OC)cc2c(=O)[nH]1)C(=O)c1ccc(S(=O)(=O)N(C)C)cc1,-1,106,106,-24
COc1ccc(S(=O)(=O)NCc2ccc(C(=O)NC3CCCCC3C)cc2)cc1 (configuration not stated),14,99,100,8
COc1ccccc1NC(=O)CSCC(N)=O,95*,102,101,-24
COc1ccc(Cl)cc1S(=O)(=O)N(C)CC(N)=O,0,100,102,2
CCc1n[nH]c(=O)c2cc3cc(OC)ccc3n12,19,99,101,4
COC(=O)c1cc(OC)c(OC)cc1NCC(=O)Nc1ccc(C)cc1,103,98,95,-38
COc1cccc(Nc2nc(C3(C)CC4(CC(C)OC4=O)C(=O)O3)cs2)c1 (configuration not stated),12,100,100,-2
COc1ccccc1CC(=O)Nc1nncs1,.,97,92,2
COc1cccc2c1OC1(CCCCC1)N1N=C(c3ccco3)CC21 (configuration not stated),-2,100,105,7
COc1ccc(CC(=O)N2CCc3ccccc3C2)cc1,2,103,105,-14
COc1ccccc1NC(=S)NC(c1ccccc1)c1ccccc1,-6,102,101,-14
COc1cccc(NC(=O)c2cnccc2C(F)(F)F)c1,-4,105,108,0
